Assay outcomes from PubChem.
MT1-MMP act inh – blocks activation of human MT1-MMP | P50281 | HT1080 RFP-PRO-GFP cells, GFP/RFP ratio fluorescence, overnight; percent of plate control window, DMSO zero | GFP/RFP ratio change, % at 20 µM | hit rate 0.061% among 360,000;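 active = GFP/RFP ratio change of at least 30% with cell ATP level not reduced by more than half and red fluorescence within 50% of control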; note: strong numbers were not always called active
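Material: RFP-PRO-GFP reporter HT1080 cells. Dosing: single-point 20 µM compound, 1% DMSO. Controls: DMSO and RFP-L50D-GFP cell wells. Timing: cells overnight before dosing, compound overnight, 37 °C, 5% CO2. Measure: GFP/RFP fluorescence ratio.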
UUG fidelity – alters start codon recognition fidelity in yeast | activity score, % at 18.7 µM | S. cerevisiae UUG-firefly luciferase reporter, luminescence/redox ratio | hit rate 0.13% among 350,000;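 active = replicate mean at a twofold rise or more, about +100% in these data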;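 note: firefly luciferase made from a UUG start codon reports start codon fidelity; reporter light over untreated wells divided by growth signal over untreated wells; some hits fall short of that in this replicate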
eIF4H inh – inhibitors of RNA binding by human eIF4H | eIF4H fluorescence polarization binding assay | inhibition, % at 35 µM | hit rate 0.94% among 290,000;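 active = 50% or more with normal probe brightness, or confirmed in later tests; about a fifth of its hits are not listed in these tables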;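 note: calls also rest on retests at 20 µM and on dose response follow-up; 0% = protein and probe with vehicle and 100% = probe without protein; strong numbers were not always called active; many hits fall short of the cut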
PABP polyA inh – blocks human PABP binding to poly(A) RNA | fluorescence polarization | inhibition, % at 35 µM | hit rate 1% among 290,000 | AID 2014;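 active = 50% or more with normal probe brightness, or confirmed in later tests; about a fifth of its hits are not listed in these tables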;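 note: calls also rest on retests at 20 µM and on dose response follow-up; controls were probe without protein and protein plus probe with vehicle; some compounds called inactive have numbers as strong as hits; many hits fall short of the cut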
Target sequence (P11940 whole entry, looked up): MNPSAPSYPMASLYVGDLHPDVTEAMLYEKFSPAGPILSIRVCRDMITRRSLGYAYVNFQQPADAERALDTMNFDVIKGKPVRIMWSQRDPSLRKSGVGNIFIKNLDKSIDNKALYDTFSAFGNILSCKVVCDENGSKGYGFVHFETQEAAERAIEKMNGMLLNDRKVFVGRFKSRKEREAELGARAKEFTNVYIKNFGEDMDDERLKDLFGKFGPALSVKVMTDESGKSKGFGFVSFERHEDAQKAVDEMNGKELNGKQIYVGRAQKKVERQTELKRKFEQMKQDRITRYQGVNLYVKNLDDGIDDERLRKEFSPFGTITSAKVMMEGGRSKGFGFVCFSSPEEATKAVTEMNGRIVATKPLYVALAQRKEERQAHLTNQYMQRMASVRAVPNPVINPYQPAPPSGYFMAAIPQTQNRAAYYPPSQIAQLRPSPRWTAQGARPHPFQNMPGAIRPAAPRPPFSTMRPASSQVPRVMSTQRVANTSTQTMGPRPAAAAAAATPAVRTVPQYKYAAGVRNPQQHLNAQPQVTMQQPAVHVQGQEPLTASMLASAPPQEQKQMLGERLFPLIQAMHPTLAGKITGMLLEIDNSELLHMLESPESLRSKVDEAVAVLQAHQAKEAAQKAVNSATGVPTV
Rce1 inhib – inhibitors of yeast Ras-converting enzyme; Q03530; yeast membranes, quenched prenylated peptide cleavage fluorescence; calls only; hit rate 0.27% among 290,000; AID 2563;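 active = fall in fluorescence gain of 50% or more versus controls, with final raw signal at or below 3038400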;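 note: plate controls were neutral control wells for no effect and wells lacking membranes for full effect; tested at 10 µM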
Target sequence (Q03530 whole entry, looked up): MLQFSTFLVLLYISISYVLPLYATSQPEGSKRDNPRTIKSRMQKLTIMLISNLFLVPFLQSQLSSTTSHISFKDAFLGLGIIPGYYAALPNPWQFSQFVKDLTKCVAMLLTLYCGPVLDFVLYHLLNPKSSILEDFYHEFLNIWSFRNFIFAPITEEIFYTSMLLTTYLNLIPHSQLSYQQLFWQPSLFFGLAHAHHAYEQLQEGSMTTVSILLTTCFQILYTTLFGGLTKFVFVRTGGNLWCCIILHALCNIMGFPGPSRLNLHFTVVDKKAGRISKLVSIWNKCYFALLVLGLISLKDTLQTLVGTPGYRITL
Env fusion inh – HIV envelope-mediated fusion inhibition; HeLa-JRFL Env/CEM21 cell fusion, luciferase; inhibition, % at 12.3 µM; hit rate 1.1% among 360,000;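 active = mean replicate inhibition score of at least 50 and every replicate individually at or above 50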;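 note: 0% = plate neutral controls and 100% = maraviroc near 300 nM; one replicate is shown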
CSC inhib – blocks cancer stem cells | cancer stem cell-like cells viability, luminescence | hit rate 1.1% among 300,000 | inhibition, % at 7.5 µM;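 active = mean at 75% or more and at least half the replicates too; tested in HMLE shEcad cells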;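 note: 0% = median of negative and 100% = median of positive control wells; the first replicate is given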
eIF4H inh retest – recorded beside eIF4H inh, whose call it bears; inhibition, %; compound at 20 µM; confirmation average;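 mean of two retest wells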
PABP polyA inh retest – second read-out of PABP polyA inh, no call of its own (marks repeat the call); inhibition, %; compound at 20 µM; confirmation repeats;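 mean of two retest wells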
MT1-MMP act inh RFP – further read-out of MT1-MMP act inh, marked with its call; RFP signal change, %; measured here: RFP expression control read;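 0 = vehicle wells; hits needed this value within 50% of zero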
* hit, by the source's call; i = inactive; . = not tested or not shown; & = joins results of further samples. Some of the compounds tested, so the mix of outcomes need not match the whole.

SMILES | MT1-MMP act inh | MT1-MMP act inh RFP | UUG fidelity | eIF4H inh | PABP polyA inh | Rce1 inhib | Env fusion inh | CSC inhib | others
Cc1ccsc1CN(C)c1ncnc2ccc(-c3ccoc3)cc12 | -9 | -6 | -8 | . | . | . | 13 | .
Cc1nc2nc(COc3ccccc3)[nH]n2c(=O)c1C | 1 | 2 | . | -2 | 10 | i | -14 | -12
COc1ccc(C)cc1NC(=O)C(OC(=O)c1cnc(C)cn1)c1ccccc1 (configuration not stated) | -2 | 2 | . | . | . | i | -6 | -15
COc1cc(C(=O)NC(c2ccccc2)c2ccccc2)cc(Cl)c1OC | -3 | -1 | -6 | -4 | 54 | i | 3 | -12 | eIF4H inh retest=-15;PABP polyA inh retest=0
COc1ccccc1-n1c(SCC(=O)N2CCOCC2)nc2ccccc2c1=O | 2 | 2 | -14 | 2 | 2 | i | 9 | .
CC(C)NC(=O)/C(C#N)=C/c1ccc2c(c1)OCCO2 | -1 | 3 | . | 8 | 28 | i | -51 | -9
CCCn1c(C(C)Nc2nc(-c3cccc(Br)c3)cs2)nc2ccccc21 (configuration not stated) | 1 | -3 | -24 | -5 | -10 | i | 38 | -9
Cc1cc2c(cc(C(=O)OCC(=O)NCc3ccco3)n2C)s1 | -13 | -5 | . | 0 | -6 | i | i | 38
Cc1ccnc(NC(=O)CNC(=O)c2cccs2)c1 | 0 | 1 | -24 | . | . | i | 7 | -6
CC(C)n1ncc(N2CCOCC2)c(Cl)c1=O | 5 | 0 | -12 | -12 | -3 | i | -11 | 0
O=C(CN1C(=O)NC2(CCCc3ccccc32)C1=O)Nc1ccccc1OC(F)F (configuration not stated) | 0 | 5 | -3 | . | . | . | -23 | .
C[C@]12CCC3C(CC[C@H]4CC(O)CC[C@]34C)C1CC/C2=N/NC(=O)c1ccncc1 (some centres not stated) | -1 | -4 | . | 0 | 6 | i | -4 | -3
Cc1ccc(NC(=O)NCc2cccnc2)cc1 | 1 | 3 | -15 | -11 | -10 | i | 15 | -3
Cc1ccc2nc(C)c(Cl)c(=O)n2c1 | 0 | 2 | -16 | -10 | -6 | i | -34 | -1
Cc1cc(OCC(=O)NCCc2ccc(Cl)cc2)c2c(C)cc(=O)oc2c1 | 0 | -7 | -6 | . | . | i | 12 | -4
COc1ccc(C(=O)N2C=Cc3ccccc3C2C(N)=O)cc1 (configuration not stated) | 0 | 0 | -2 | . | . | . | -1 | .
Cc1c(C(=O)NCc2ccc3c(c2)OCCO3)sc(=O)n1Cc1ccc2c(c1)OCO2 | 4 | -3 | -5 | . | . | . | 3 | .
Clc1ccc(COn2c(-c3ccccc3)nc3ccccc32)cc1 | -7 | -5 | -27 | -14 | -4 | i | 34 | 52
Cc1[nH][nH]c(=O)c1N=Nc1ccc(S(N)(=O)=O)cc1 | 2 | 6 | 5 | . | . | i | -16 | -13
Cc1nnc(SCC(=O)NC2CCCCC2C)s1 (configuration not stated) | 3 | 7 | . | -5 | -1 | i | -55 | -8
CCOC(=O)C1=C(O)/C(=C\c2ccc(O)c(OCC)c2)N=C1C | 1 | 7 | . | 28 | -7 | i | -2 | -11
Cc1[nH]n(-c2cccc3ccccc23)c(=O)c1C=Nc1ccc2[nH]c(=O)[nH]c2c1 | 5 | 4 | -25 | 9 | 16 | i | . | 11
COc1ccc(CC(=O)Oc2ccc(C)cc2C)cc1 | -1 | -4 | -2 | 1 | -4 | i | 3 | 2
Cc1cc(C)c(C)c(/C=C(/C#N)C(N)=S)c1C | -4 | 0 | -21 | -6 | -10 | i | 8 | 3
O=C(Nc1ccc(C(=O)N2CCC(N3CCOCC3)CC2)cc1)c1ccc(Br)o1 | 5 | 6 | -13 | . | . | . | -2 | -26
O=C(CNS(=O)(=O)c1ccccc1)Nc1ccccc1Br | 1 | 5 | -24 | -10 | -6 | i | 23 | 5
CC(=O)Nc1ccc(NC(=O)[C@H](C)NC(=O)c2ccco2)cc1 | 4 | 3 | -10 | -6 | 8 | i | 0 | -22
COc1c(Cl)cc(Cl)cc1C(=O)Nc1ccc(CN2CCOCC2)cc1 | -1 | -5 | -6 | -9 | 9 | i | 9 | .
Cc1ccc(-n2cc3ccc([N+](=O)[O-])cc3n2)cc1 | 4 | -5 | -19 | 7 | -8 | i | i | -4
N#CCCn1c(SCC(=O)NCC2CCCO2)nc2ccccc21 (configuration not stated) | -3 | 3 | -8 | -6 | 6 | i | -6 | 5
O=C1CN(S(=O)(=O)c2ccccc2C(F)(F)F)CCN1 | 2 | 5 | -5 | -5 | -20 | i | 11 | -10
COc1ccc(N)c2c1OCCC2=O | 0 | 1 | . | 36 | -7 | i | . | -11
COc1ccc(Cl)cc1NC(=O)CCN1CCN(Cc2ccccc2)CC1 | 4 | -2 | -26 | 12 | -2 | i | 1 | 0
COc1ccccc1N1CCN(S(=O)(=O)c2ccc(Br)s2)CC1 | 5 | 1 | -8 | 9 | 25 | i | -27 | .
CCOC(=O)c1ccc(NC(=O)CSc2nnc(CNC(=O)c3c(F)cccc3Cl)o2)cc1 | -2 | 2 | -14 | -2 | -5 | i | . | 3
Cc1cccc(C(C)C)c1NC(=O)CSc1ncnc2[nH]ncc12 | 1 | 0 | -18 | . | . | . | . | -4
COc1ccc(C2N(S(=O)(=O)c3ccc(C)cc3)CCN2S(=O)(=O)c2ccc(C)cc2)cc1 | 3 | -5 | -13 | -12 | -4 | i | 105* | -1
CCOC(=O)c1cccc(N2CC3CNC(=O)C2(C(=O)OC)N3C)c1 (configuration not stated) | 3 | 1 | -6 | . | . | . | -3 | .
COc1ccc2c(-c3ccccc3)cc(SCC(=O)NC3CCS(=O)(=O)C3)nc2c1 (configuration not stated) | -7 | -5 | 4 | -7 | 14 | i | 17 | -4
O=S1(=O)CCO[C@H]2Cc3ccccc3[C@H]2N1Cc1ccc(F)cc1 | 1 | 2 | 15 | -8 | -1 | i | -32 | 0
O=C(NN1CCOCC1)c1sc2cccc(F)c2c1Cl | -3 | 0 | -10 | 3 | 4 | i | -2 | 1
CCc1ccc(C(=O)/C=C/Nc2ccc(S(=O)(=O)Nc3cnc4ccccc4n3)cc2)cc1 | 9&2 | -6&-8 | -16 | -1 | -2 | i | -10&7 | -7
CC1(C(=O)NCc2cccc3ccccc23)CCN1CCc1ccccc1 (configuration not stated) | -2 | -6 | 12 | . | . | . | 12 | .
O=C(c1cccc(F)c1)N1CCC(N2CCOCC2)CC1 | 0 | 2 | -6 | 3 | 26 | i | . | -3
Cc1ccc(-n2c(N)c(C(=O)N3CCOCC3)sc2=S)c(C)c1 | -1 | 4 | -13 | -9 | -7 | i | 24 | .
Fc1ccc(C(c2nnnn2CCc2ccccc2)N2CCCc3ccccc32)cc1 (configuration not stated) | -52 | -35 | -13 | -4 | -11 | i | 90* | -4
Clc1ccc(-c2noc(CN3CCOCC3)n2)cc1 | 0 | 0 | -4 | 11 | 4 | i | -18 | 1
Cc1ccc(S(=O)(=O)N2CCC[C@H]2C(=O)OCC(=O)N2CCc3ccccc32)cc1 | -1 | 0 | 4 | . | . | . | . | -12
COc1ccccc1N1C(=O)CC(Nc2ccc(N3CCOCC3)cc2)C1=O (configuration not stated) | 10 | 10 | -18 | 9 | 15 | i | -66 | .
CCn1c(COc2ccccc2C)nnc1SCC(=O)NC1CCCC1 | 6 | 0 | -17 | -1 | -5 | i | -44 | -18

A run of entries taken from the entries so far:
SMILES | MT1-MMP act inh | MT1-MMP act inh RFP | UUG fidelity | eIF4H inh | PABP polyA inh | Rce1 inhib | Env fusion inh | CSC inhib | others
O=C(NN1CCOCC1)c1sc2cccc(F)c2c1Cl | -3 | 0 | -10 | 3 | 4 | i | -2 | 1
CCc1ccc(C(=O)/C=C/Nc2ccc(S(=O)(=O)Nc3cnc4ccccc4n3)cc2)cc1 | 9&2 | -6&-8 | -16 | -1 | -2 | i | -10&7 | -7

The results go on:
SMILES | MT1-MMP act inh | MT1-MMP act inh RFP | UUG fidelity | eIF4H inh | PABP polyA inh | Rce1 inhib | Env fusion inh | CSC inhib | others
COc1cc2c(cc1[N+](=O)[O-])-c1ccc([N+](=O)[O-])cc1C2=NO | 4 | -7 | -4 | . | . | . | -53 | .
CNS(=O)(=O)c1cc(NC(=O)c2cccc3cccnc23)ccc1C | 2 | 2 | 5 | -3 | 2 | i | -11 | 9
NC(=O)c1ccsc1NC(=O)COC(=O)C1CC2CCCC(C1)C2=O (configuration not stated) | 3 | 5 | -27 | -6 | 6 | i | -14 | .
COc1ccc(C(C(=O)NCc2ccc(F)cc2)N(C(=O)c2csnn2)C2CC2)cc1 (configuration not stated) | 0 | 3 | -2 | -9 | 8 | i | 4 | -6
Cc1c(C(=O)N2CCN(c3ccccn3)CC2)oc2ccccc12 | 6 | 4 | 3 | -3 | 5 | i | -11 | -8
COc1ccc(CCN(C)C(=O)/C=C/c2c(Cl)nc3ccccn23)cc1OC | 3 | 7 | . | 3 | 15 | i | 12 | -9
CN(C)C(=O)c1cccc(-c2cnc3c(NC=O)cc(-c4cccc(C(F)(F)F)c4)cn23)c1 | -6 | -24 | -13 | . | . | . | 56* | .
COC(=O)CSc1ccc2nnc(-c3ccc(F)cc3)n2n1 | -1 | -3 | -25 | -9 | -8 | i | . | -8
COc1ccc(CCNC(=O)c2nn(C)c3c2CS(=O)(=O)c2ccccc2-3)cc1OC | -2 | 2 | -11 | -12 | -8 | i | . | 10
CCC(CCCO)CCC[C@H](C)CCC1OCCO1 (some centres not stated) | 7 | 4 | -3 | . | . | . | 30 | 6
Cc1cccn2c(=O)nc(SCC(=O)NCc3ccccc3Cl)nc12 | -2 | 5 | -8 | . | . | i | 5 | -5

Sorted by molecular weight (ascending): 13 of the compounds above
SMILES | MT1-MMP act inh | MT1-MMP act inh RFP | UUG fidelity | eIF4H inh | PABP polyA inh | Rce1 inhib | Env fusion inh | CSC inhib | others
CCC(CCCO)CCC[C@H](C)CCC1OCCO1 (some centres not stated) | 7 | 4 | -3 | . | . | . | 30 | 6
Clc1ccc(-c2noc(CN3CCOCC3)n2)cc1 | 0 | 0 | -4 | 11 | 4 | i | -18 | 1
COC(=O)CSc1ccc2nnc(-c3ccc(F)cc3)n2n1 | -1 | -3 | -25 | -9 | -8 | i | . | -8
Cc1c(C(=O)N2CCN(c3ccccn3)CC2)oc2ccccc12 | 6 | 4 | 3 | -3 | 5 | i | -11 | -8
NC(=O)c1ccsc1NC(=O)COC(=O)C1CC2CCCC(C1)C2=O (configuration not stated) | 3 | 5 | -27 | -6 | 6 | i | -14 | .
CCn1c(COc2ccccc2C)nnc1SCC(=O)NC1CCCC1 | 6 | 0 | -17 | -1 | -5 | i | -44 | -18
COc1ccccc1N1C(=O)CC(Nc2ccc(N3CCOCC3)cc2)C1=O (configuration not stated) | 10 | 10 | -18 | 9 | 15 | i | -66 | .
COc1ccc(CCN(C)C(=O)/C=C/c2c(Cl)nc3ccccn23)cc1OC | 3 | 7 | . | 3 | 15 | i | 12 | -9
Fc1ccc(C(c2nnnn2CCc2ccccc2)N2CCCc3ccccc32)cc1 (configuration not stated) | -52 | -35 | -13 | -4 | -11 | i | 90* | -4
Cc1ccc(S(=O)(=O)N2CCC[C@H]2C(=O)OCC(=O)N2CCc3ccccc32)cc1 | -1 | 0 | 4 | . | . | . | . | -12
COc1ccc(C(C(=O)NCc2ccc(F)cc2)N(C(=O)c2csnn2)C2CC2)cc1 (configuration not stated) | 0 | 3 | -2 | -9 | 8 | i | 4 | -6
COc1ccc(CCNC(=O)c2nn(C)c3c2CS(=O)(=O)c2ccccc2-3)cc1OC | -2 | 2 | -11 | -12 | -8 | i | . | 10
CN(C)C(=O)c1cccc(-c2cnc3c(NC=O)cc(-c4cccc(C(F)(F)F)c4)cn23)c1 | -6 | -24 | -13 | . | . | . | 56* | .
